VDR inhibitor = blocks the human vitamin D receptor. VDR-SRC2-3 peptide fluorescence polarization, 2 h. AID 504847. hit rate 0.93% among 400,000. Potency, µM, for the others: max response, negative = inhibition, actives largely listed as inhibitors; active = well fitted inhibition curve with a large enough effect; inconclusive = small, poorly fitted or top-dose-only effect, or another doubt; inactive = no such curve, though single readings can be large or run the other way; also: series mostly up to about 120 µM
Target sequence (P11473 whole entry, looked up): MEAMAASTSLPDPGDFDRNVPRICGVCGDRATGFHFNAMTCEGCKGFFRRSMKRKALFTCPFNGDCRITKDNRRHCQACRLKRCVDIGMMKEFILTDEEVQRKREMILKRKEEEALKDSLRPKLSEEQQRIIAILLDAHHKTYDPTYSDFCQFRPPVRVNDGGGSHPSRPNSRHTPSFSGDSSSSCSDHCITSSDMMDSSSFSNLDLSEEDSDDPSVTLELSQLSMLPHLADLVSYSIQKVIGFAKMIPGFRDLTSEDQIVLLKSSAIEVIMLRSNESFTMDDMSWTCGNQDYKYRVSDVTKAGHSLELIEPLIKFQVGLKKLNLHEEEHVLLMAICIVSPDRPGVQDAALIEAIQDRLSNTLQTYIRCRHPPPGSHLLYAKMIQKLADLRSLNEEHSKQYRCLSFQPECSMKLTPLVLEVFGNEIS
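Fluorescence polarization assay measuring small-molecule disruption of VDR binding to the coregulator peptide SRC2-3. Compounds were pin-transferred (23 nl) into the reagent mix and incubated 2 h at room temperature before reading.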
Starred values were filed as active, the others as inactive; ? = inconclusive. % is scaled to controls: 0 for no effect and ±100 for the full control effect; potency is read from the fitted curve at half-maximal effect. An excerpt, so the mix of outcomes need not match the whole.

canonical_smiles	VDR inhibitor
Cc1ccc2nc(SCC(=O)c3ccccc3)nc(=O)n2c1	-18.1%
CCCCCOc1ccc(Cn2c(=O)oc3ccccc32)cc1	2.3%
Cn1c(=S)[nH]c2cc(C(=O)N3CCN(C(=O)c4ccccc4)CC3)ccc2c1=O	-8.1%
COc1ccccc1C(C(C(=O)c1ccccc1)N1CCOCC1)N1CCOCC1 (stereo not drawn)	-2.5%
COC(=O)CSc1nnc(-c2ccc(NS(=O)(=O)c3ccccc3)cc2)o1	5.7%
S=C1CCC(c2ccc(Br)cc2)=NN1c1ccccc1	2.7%
CCc1ccc(S(=O)(=O)c2cn(C)c3cc(N4CCOCC4)c(F)cc3c2=O)cc1	2.7%
Cc1cccc(C)c1OCCNC(=O)OCc1ccccc1	-10.4%
CC(=O)NC(Cc1ccccc1)C(=O)OCC(=O)c1ccc(F)cc1 (stereo not drawn)	3.5%
Cc1ccc(-c2ccc(/C=C(\C#N)C(N)=S)n2C)cc1	7.3%

Reprinted at random: 4 compounds from above, in no set order.
canonical_smiles	VDR inhibitor
CCc1ccc(S(=O)(=O)c2cn(C)c3cc(N4CCOCC4)c(F)cc3c2=O)cc1	2.7%
COC(=O)CSc1nnc(-c2ccc(NS(=O)(=O)c3ccccc3)cc2)o1	5.7%
Cc1ccc2nc(SCC(=O)c3ccccc3)nc(=O)n2c1	-18.1%
S=C1CCC(c2ccc(Br)cc2)=NN1c1ccccc1	2.7%

(cont.)
canonical_smiles	VDR inhibitor
Cc1noc(NS(=O)(=O)c2ccc(NC(=O)c3ccc(Cl)c(S(=O)(=O)N(C)c4ccccc4)c3)cc2)c1C	13.9%
CSc1nnc(CNC(=O)c2ccccc2)n1-c1ccc(F)cc1	4.1%
COCCCNC(=O)c1ccc2c(c1)N=C(C)c1c(C)ccc(C)c1S2	-6.1%
Nc1ccccc1SC(C[N+](=O)[O-])c1ccccc1 (stereo not drawn)	3.55µM*
COc1ccc(C(=O)Cn2c(C(=O)/C=C/c3ccccc3)nc3ccccc32)cc1	8.9%
Cc1ccccc1NC(=O)c1ccccc1-c1ccccc1	21.4%
O=C1CC/C=C\C[C@@H](CC(=O)N(CCO)Cc2ccccc2)C(=O)N2CCC[C@H]2CO1	9.9%
OCCC1CN(Cc2cccc3nonc23)CCN1Cc1ccsc1 (stereo not drawn)	5.8%
CCc1ccccc1Nc1nc(N)nc(CSCC(=O)Nc2ccc(C)c(C)c2)n1	-0.8%
CN(Cc1ccccc1)C(=O)CSc1nnc(-c2cccc(Cl)c2)o1	2.8%
CCCCCC(=O)Nc1cccc2ccccc12	20.2%
O=C(Cc1ncc(C(F)(F)F)cc1Cl)N1CCN(c2ccccn2)CC1	8.6%
COc1ccccc1NC(=O)Cn1cnc2c(oc3nc4c(cc32)CCCC4)c1=O	-11.6%
Cc1ccc(-c2sc(-c3ccccc3)nc2CC(=O)Nc2ccccc2F)cc1	-11.8%
COCC(=O)Nc1ccc(N2CCOCC2)c(S(=O)(=O)Nc2ccc(OC)cc2)c1	-5.3%
COCCCNc1nc2ccccc2nc1NS(=O)(=O)c1ccc(OC)cc1	-1.8%
CCC(=O)Nc1cc(=O)[nH]c2nc(-c3ccc(Cl)cc3)nn12	?
COc1ccc(C(=O)NCCn2cc(SCC(=O)Nc3cc(C)on3)c3ccccc32)cc1OC	-4.9%
COc1cccc(NC(=O)CSC2=Nc3ccccc3N=C(c3ccc(F)cc3)C2)c1	5.8%
CCCN(CC(=O)Nc1ccccc1C)C(=O)Cc1n[nH]c(=O)c2ccccc12	6.8%
COc1ccc(C(=O)NCCCc2ccccc2)cc1	11.8%
O=c1[nH]c2ccc([N+](=O)[O-])cc2[nH]1	-1.8%
NS(=O)(=O)c1cccc(NC(=O)c2cncc(Br)c2)c1	-9.4%
O=C(c1ccc(CSCc2ccccc2F)o1)N1CCN(c2ccc(N3CCOCC3)nn2)CC1	-0.8%
O=C1CCC[C@@H]2[C@H](Cc3ccccc3)[C@@H](O)C[C@@H]3CCN1[C@@H]32	11.9%
Cc1ccc(Nc2nnc(SCC(O)=C(C#N)c3nc4ccccc4[nH]3)s2)c(C)c1	8.1%
CC(C)(C)c1nc(Sc2ncccc2[N+](=O)[O-])n[nH]1	4.2%
CCOC(=O)c1ccc(OC(=O)c2cn(-c3cccc(OC)c3)c(=O)c3ccccc23)cc1	-0.5%
COc1ccccc1CC(=O)Nc1nc(-c2ccc(F)c(F)c2)cs1	-7.0%
CC1CC(C)CN(CCCNC(=O)c2ccc3c(c2)NC(=O)CS3)C1 (stereo not drawn)	-1.7%
Cc1ccccc1Nc1nnc(-c2ccc(C)c(S(=O)(=O)N3CCCCC3)c2)c2ccccc12	-7.2%
COc1ccc(C=C(C#N)C#N)c(CSc2ccccn2)c1	?
COc1ccc(/C(C)=N/NC(=O)C2C3CCCCC32)c(OC)c1 (stereo not drawn)	11.9%
O=C(O)CCCCCNc1ccc2nsnc2c1[N+](=O)[O-]	9.9%
CNc1nc(C)c(C(=O)c2ccc(Cl)cc2)s1	19.8%
CCOC(=O)COc1ccc2c(c1)C(=O)CC(C)(c1cccnc1)O2 (stereo not drawn)	11.7%
O=c1c2c(nc3cc(-c4cccc(F)c4)[nH]n13)CCC2	-11.2%
COc1cccc(CN2CCCN(CC(=O)Nc3ccc4c(c3)OCCO4)S2(=O)=O)c1	10.3%
COc1ccc(-c2coc3cc(O[C@@H]4O[C@H](CO)[C@@H](O)[C@H](O)[C@H]4O)c(OC)cc3c2=O)cc1	-3.8%
Cc1sc(NC(=O)c2ccccc2)c(C(c2ccccn2)N2CCN(CCO)CC2)c1C (stereo not drawn)	6.3%

At a glance, 2 of the compounds above.
canonical_smiles	VDR inhibitor
Cc1ccccc1Nc1nnc(-c2ccc(C)c(S(=O)(=O)N3CCCCC3)c2)c2ccccc12	-7.2%
COc1ccc(C=C(C#N)C#N)c(CSc2ccccn2)c1	?

Other compounds follow.
canonical_smiles	VDR inhibitor
CCC(C)N1CCN(S(=O)(=O)c2ccc3ccccc3c2)CC1 (stereo not drawn)	-5.5%
COc1ccc(CNC(=O)CSc2nc3ccsc3c(=O)n2Cc2ccccc2Cl)cc1	-6.1%
COC(=O)c1sccc1NC(=O)CSCC(=O)O	16.9%
Cc1cccc(NC(=O)C2CCN(S(=O)(=O)c3cccc4cccnc34)CC2)n1	-6.6%
CC(=O)c1sc(Nc2cccc3ccccc23)nc1C	-8.4%
COc1ccc(Nc2nccc3c2ncn3C)cc1	18.8%
CCc1cccc(C)c1NC(=O)COC(=O)c1ccc2c(c1)S(=O)(=O)c1ccccc1C2=O	-22.8%
COc1ccccc1CNC(=O)Cc1c(C)c2c(cc(C)c3c(C)c(C)oc32)oc1=O	10.5%
CC(C)NC(=O)c1onc(CSc2cccc(F)c2)c1C(=O)O	-9.0%
COc1ccc(CN(C)c2ncnc(N)n2)cc1	-6.9%
Cc1c(C(=O)N2CCOCC2)c(S(=O)(=O)Nc2ccc(F)cc2)c(C)n1C	-6.3%
CC(=O)c1cccc(Nc2nc(-c3cccnc3)cs2)c1	1.1%
CC(C)(C)NC(=O)c1cc(-c2ccccc2)n[nH]1	-4.4%
COC(=O)c1cnn(C(=O)c2ccccc2Br)c1N	-2.4%
COc1ccc(CCNC(=O)CN2c3cccc4cccc(c34)S2(=O)=O)cc1	-1.7%
O=C(NCc1ccc(F)cc1)c1ccc[nH]1	-4.4%
O=C(C1CCN(C2CCN(C/C(Cl)=C/c3ccccc3)CC2)CC1)N1CCOCC1	2.6%
Cc1cc(C)nc(-n2ncc3c2CC(c2ccccc2C)CC3=O)n1 (stereo not drawn)	-7.4%
CCc1ccc(OCCNC(=O)c2ccc(S(=O)(=O)N(C)C)cc2)cc1	1.4%
COC(=O)C(C)NC(=O)C1CCCN1S(=O)(=O)c1cc(C)c(Cl)cc1C (stereo not drawn)	-8.1%

Additional structures follow.
compound | VDR inhibitor
CCCC1CCC(C2=N/C(=C\c3ccc(OC)c(OC)c3)C(=O)O2)CC1 (stereo not drawn) | 5.2%
CCOC(=O)c1c(NC(=O)COc2ncnc3ccccc23)sc(C)c1CC | 9.5%
CCCCC1=CC2=CC(=O)C(C)(OC(=O)CC)C(=O)C2=CN1CCN1CCOCC1 (stereo not drawn) | -4.3%
COc1ccc(C(=O)c2ccc(OC)c3cccc(O)c23)cc1OC | -1.8%
COc1ccc(CC(=O)NCCN2CCCC2)cc1 | -3.7%
CCOC(=O)c1cc(C#N)c(SCc2ccc(C#N)cc2)nc1C | -15.4%
CCOC(=O)CNS(=O)(=O)c1cc(-c2nn(C)c(=O)c3ccccc23)ccc1C | -11.2%
Cc1ccc2oc(-c3cccc(NC(=S)NC(=O)/C=C/c4ccco4)c3)nc2c1 | -0.4%
CCCCCCC(=O)N=Nc1c(O)[nH]c2ccc([N+](=O)[O-])cc12 | -8.9%
O=C(/C=C/c1ccc([N+](=O)[O-])cc1)NNC(=O)C1CC1 | -18.9%
COc1ccc(N2CCN(Cc3cc(=O)oc4ccc5ccccc5c34)CC2)cc1 | -13.8%
Cc1ccc(SCC(=O)Nc2ccc3oc(-c4ccc(F)cc4)nc3c2)cc1 | 6.3%
CCOC(=O)c1ccc(NC(=O)C2CC(=O)Nc3nc4ccccc4n32)cc1 (stereo not drawn) | -4.1%
COc1cccc(-c2nc3c(c(SCC(=O)Nc4cc(C)ccc4C)n2)Cc2c(CO)cnc(C)c2O3)c1 | 2.4%
Cc1oc2ncn(CC(C)C)c(=O)c2c1C(=O)NCc1cccc(Cl)c1 | -0.9%
Cc1ccc(S(=O)(=O)NC(=O)COc2ccc([N+](=O)[O-])cc2)cc1 | -2.5%
CC(C)NC(=O)c1cc2c(=O)n3ccccc3nc2s1 | -19.5%
CC(C)(C)NC(=O)c1cnn(-c2ccccc2)c1C1CCN(C(=O)OC(C)(C)C)CC1 | 5.6%
Cc1cc(C(=O)CSc2nnnn2C)c(C)n1Cc1ccco1 | 7.0%
NS(=O)(=O)c1ccc(NC(=O)CN2CCN(c3ccc(F)cc3)CC2)cc1 | 5.1%
O=C(NCC(c1ccco1)N1CCCC1)c1cccc(S(=O)(=O)Nc2ccc(F)cc2)c1 (stereo not drawn) | 2.2%
O=C(N/N=C/c1cccnc1)c1cccs1 | 18.4%
CCN(CC)Cc1c(C(=O)OC(C)C)nnn1-c1nonc1N | 12.4%
Cc1ccc(C(=O)CSc2nnc(CNc3ccc(C)cc3C)o2)cc1 | -11.9%
CCCSc1nnc(-c2c[nH]c3ccccc23)n1C | 4.0%
CC(=O)Nc1ccc2nc(SCC(=O)N3CCOCC3)sc2c1 | 4.1%
CCOC(=O)C1=C(C)NC(=O)NC1c1c(C)nn(-c2ccccc2)c1Cl (stereo not drawn) | -10.1%
COc1ccc(-c2cc(C(F)(F)F)n3nc(C)cc3n2)cc1 | 5.7%
CCOC(=O)C1=C(NC(=O)c2ccc(Br)o2)Nc2ccccc2N=C1 | 5.5%
COC(=O)c1ccc(COC(=O)C2CCN(S(=O)(=O)c3c(Cl)cccc3Cl)CC2)o1 | -3.5%
Cc1ccc2c(=O)c(C(=O)c3cccc(Cl)c3)cn(CC(=O)Nc3ccc4c(c3)OCCO4)c2n1 | -1.7%
COc1ccc(C(=O)NC2CC2)cc1OC1CCN(Cc2ccc(F)cc2)CC1 | -23.0%
CC(=O)c1ccc(NC(=O)Cc2ccsc2)cc1 | -5.8%
COc1cc(NC(=O)C2CCCN(S(=O)(=O)c3ccc4c(c3)CCCN4C(C)=O)C2)cc(OC)c1 (stereo not drawn) | 7.5%
COc1cc(C(=O)NNC(=O)c2ccccc2Br)ccc1OCC(=O)N1CCOCC1 | -8.3%
CCCC(c1nnnn1CC1CCCO1)N1CCN(c2cc(Cl)ccc2C)CC1 (stereo not drawn) | 1.9%
Cc1cc(C)cc(OCC(=O)Nc2cccc(-c3nnc(-c4ccco4)o3)c2)c1 | 7.2%
CCN(CC)S(=O)(=O)c1cccc(C(=O)OCC(=O)C23CC4CC(CC(C4)C2)C3)c1 | -13.4%
COc1ccc(C(=O)N2CCC(n3c(C)nc4cc(F)ccc43)CC2)cc1 | 0.1%
CCC(C)/C(C)=N/NC(=O)c1ccccc1OCCOc1ccccc1 (stereo not drawn) | -4.7%
CCOC(=O)c1cc(C)n(CC2CCC(C(=O)Nc3ccc(OCC)cc3)CC2)c1C (stereo not drawn) | 4.6%
Cc1nn2c(=O)cc(COC(=O)Cc3ccccc3)nc2s1 | 12.7%
Nc1nc2n(n1)C(c1c(F)cccc1Cl)CC(c1ccc(F)cc1)N2 (stereo not drawn) | -13.7%
COc1ccc(-c2c(-c3cc(OC)cc(OC)c3)n(C)c3ccc(Br)cc23)cc1 | -23.3%
CCCCNC(=O)c1cnc2sc(N3CCCCCC3)nn2c1=O | 7.8%
COc1cc2c(cc1OC)CN(C(=O)CN1CCN(S(=O)(=O)c3ccc(C)c(C)c3)CC1)CC2 | 4.4%
COc1cccc(CNC(=O)CN2C(=O)CSc3c2c(C)nn3-c2ccccc2)c1 | 10.5%
Cc1nn(C)cc1CN(C)C(=O)c1sc2cccc(Cl)c2c1Cl | -1.6%
CCCCNc1nc2c(c(=O)[nH]c(=O)n2C)n1CCOc1ccccc1 | 7.0%
CN1CCc2ccc(NC(=O)c3ccc(C(F)(F)F)cc3)cc2C1 | -18.3%
CCOC(=O)c1c(C)[nH]c(C)c1C(=O)COC(=O)CNC(=O)c1ccc(OCC)cc1 | -8.5%
Cc1ccc(S(=O)(=O)N2CCN(C(=O)COC(=O)COc3cccc(C(F)(F)F)c3)CC2)c(C)c1 | -9.5%
COc1ccccc1OCC(=O)N(Cc1nnc(-c2ccccc2Cl)o1)C1CC1 | -2.5%
NS(=O)(=O)c1ccc(CNC(=O)Cc2c(F)cccc2Cl)cc1 | 20.3%
CN(C)c1cccc(C(=O)OCC(=O)NC(=O)NCc2ccccc2)c1 | 9.5%
N#Cc1c(N)sc2c1CCN(C(=O)OCc1ccccc1)C2 | -3.8%
Cc1ccc(C(=O)N/N=C\C=C\c2ccc(Br)cc2)cn1 | -13.4%
O=C(NNC(=O)c1ccccc1-c1ccccc1C(=O)O)c1ccccc1 | 2.8%
